Source: PubChem BioAssay (National Center for Advancing Translational Sciences (NCATS))
ClpP mod: qHTS Assay for Activators of ClpP. ATP-dependent Clp protease proteolytic subunit (Bacillus subtilis (strain 168)), P80244. purified B. subtilis ClpP, FRET peptide cleavage, 20 min. Potency, µM (highest dose often 57.5 µM), inactives show top-dose activity change, negative = active. actives 1.9% (n = 340,000); active = well fitted falling curve with a large enough effect; inconclusive = small, poorly fitted or top-dose-only effect; inactive = no such curve, though single readings can be large or run the other way; further: potency means the concentration at half of the fitted maximal effect; the source files actives as falling curves though it sought activators and does not explain the sign; nearly all actives have a fitted effect of over 65% in size; many hits overshoot -100%
Target sequence (P80244 whole entry, looked up): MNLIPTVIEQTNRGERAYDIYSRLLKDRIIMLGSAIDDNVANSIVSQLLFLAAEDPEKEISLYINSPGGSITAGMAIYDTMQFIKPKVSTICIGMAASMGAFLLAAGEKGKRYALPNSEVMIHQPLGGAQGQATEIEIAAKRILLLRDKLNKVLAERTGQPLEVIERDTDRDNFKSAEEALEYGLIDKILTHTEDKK
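ClpP 10 microg/mL final, pH 8 Tris/KCl buffer with BSA, glycerol, Tween-20; compound pinned in; FRET-FV substrate; RT 20 min; Ex320/Em430; ΔFRET vs ADEP 5.8 microM, DMSO, no enzyme.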
TRPML1 ag: qHTS for Agonists of the Human Mucolipin Transient Receptor Potential 1 (TRPML1) | Mucolipin-1 (Homo sapiens), Q9GZU1 | TRPML1-expressing cells, Ca2+ dye fluorescence, FDSS; host cell line not named in the record; reference of the full effect not given here | activation, % (test concentration not listed) | actives 0.12% (n = 410,000) | AID 624414, 2012; in the data active = activation above about 50%; inconclusive = about 30% to 50%; inactive = below about 30%; further: 0% is about no effect; the text of the record puts the active cut at 80%
Target sequence (Q9GZU1 whole entry, looked up): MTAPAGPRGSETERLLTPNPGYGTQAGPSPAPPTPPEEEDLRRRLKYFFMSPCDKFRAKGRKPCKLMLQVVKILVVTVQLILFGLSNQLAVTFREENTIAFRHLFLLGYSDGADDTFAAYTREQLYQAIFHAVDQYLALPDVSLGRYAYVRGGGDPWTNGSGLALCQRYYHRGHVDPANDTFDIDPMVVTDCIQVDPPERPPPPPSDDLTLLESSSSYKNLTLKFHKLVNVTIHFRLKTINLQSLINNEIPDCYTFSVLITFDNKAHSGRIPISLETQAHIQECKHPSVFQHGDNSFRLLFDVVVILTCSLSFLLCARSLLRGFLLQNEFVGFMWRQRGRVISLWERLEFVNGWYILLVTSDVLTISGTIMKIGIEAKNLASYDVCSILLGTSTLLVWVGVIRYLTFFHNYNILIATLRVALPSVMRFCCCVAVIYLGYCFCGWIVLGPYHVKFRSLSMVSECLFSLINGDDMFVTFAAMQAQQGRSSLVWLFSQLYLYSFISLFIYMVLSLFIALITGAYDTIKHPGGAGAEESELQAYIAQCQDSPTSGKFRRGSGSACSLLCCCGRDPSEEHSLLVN
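TRPML1-DL cells, Tet-induced overnight (~16 h, 37 degrees C), loaded 45-90 min at room temperature with Ca8 no-wash calcium dye plus quencher. FDSS fluorescence: 10 s baseline, compound pin-transfer, 110 s agonist read, then EC80 54-4 (4uM final) and 110 s antagonist read.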
PINK1 expr mod: A Quantitative High throughput Screen to Identify Chemical Modulators of PINK1 Expression; PINK1 immunofluorescence, high-content cytometry, 24 h; Potency, µM (series often up to 76.6 µM), for inactives: at the top dose activation (PINK1 increase), usual class: activators; actives 0.2% (n = 410,000); AID 624263, 2012; active = well fitted activation curve with a large enough effect; inconclusive = small, poorly fitted or top-dose-only effect; inactive = flat fitted curve, though single readings scatter; cell line not stated here;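 further: potency means the concentration at half of the fitted maximal effect; % of control where 0% means no effect; nearly all actives have a fitted effect of over 65% in size; a mitochondrial uncoupler was the plate control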
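Stable cell line treated 24 h with compounds at 5 concentrations (CCCP controls), then fixed and immunostained for PINK1 plus nuclear and cell stains; PINK1 immunofluorescence quantified by laser-scanning microplate cytometry.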
TRPV1 potentiator: HTS Assay for Compounds that Act as Potentiators of the Vanilloid Receptor 1; Transient receptor potential cation channel subfamily V member 1 (Homo sapiens), Q8NER1; TRPV1-expressing cells, Fluo-8 calcium influx, capsaicin EC20 potentiation; host cell line not named in the record; control for the full effect not named in the record; potentiation, % at 8.33 µM; actives 0.02% (n = 320,000); AID 540277, 2011; active means potentiation above 80%; inconclusive means 30% to 80%; inactive means below 30%; further: 0% is about no effect
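TRPV1-expressing cells were cultured overnight at 35.5C and loaded with Fluo-8 calcium dye for 40 to 90 min at room temperature. After a 10 s baseline, compound was added and calcium influx was read kinetically for 3 min (ex 480/em 520 nm).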
Sfp PPTase inh: qHTS Assay for Inhibitors of Bacillus subtilis Sfp phosphopantetheinyl transferase (PPTase); 4'-phosphopantetheinyl transferase ffp (Bacillus subtilis), Q9F4F7; actives 3.5% (n = 310,000); Potency, µM, inactives show max response, negative = inhibition, hits mostly inhibitors; Biochemical Sfp PPTase activity, qHTS; active means well fitted inhibition curve with a large enough effect; inconclusive means small, poorly fitted or top-dose-only effect, or another doubt; inactive means no such curve, though single readings can be large or run the other way;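 further: the enzyme is Sfp with the accession as filed and its product quenches rhodamine fluorescence; potency means the concentration at half of the fitted maximal effect; 0% = enzyme reaction without inhibitor and -100% = no enzyme wells; top concentration of the series not given in the record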
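Fluorescence-quenching assay: 15 nM Sfp-PPTase preincubated 15 min at room temperature with compound, then 5 uM rhodamine-CoA and 12.5 uM BHQ-2-labelled YbbR peptide added. Fluorescence (ex 525/em 598 nm) read at start and after 30 min; difference gives rate.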
TRPML1 inh: qHTS for Inhibitors of the Human Mucolipin Transient Receptor Potential 1 (TRPML1); Mucolipin-1 (Homo sapiens), Q9GZU1; TRPML1-inducible cells, Ca2+ dye fluorescence, FDSS; stronger effect = lower value; inhibition of EC80 agonist-evoked calcium signal; activity change, negative = inhibition, % (test concentration not listed); actives 0.02% (n = 390,000); AID 624415, 2012; in the data active means activity change below about -50%; inconclusive means about -30% to -50%; inactive means above about -30%;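 further: stimulus is agonist 54-4 at its EC80 concentration; on the % scale 0 is the no-effect control and ±100 the full control effect; compound concentration not given in the record; the text of the record puts the active cut at -80%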
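Calcium fluorescence in TRPML1-DL cells induced overnight with Tet: a 110 s read after compound pin addition, then a 110 s antagonist read after challenge with 54-4 at 4 uM final (EC80).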
Menin-MLL FL inh: qHTS Assay for Inhibitors Targeting the Menin-MLL Interaction in MLL Related Leukemias: Competition With Fluorescein Labeled MLL-derived Peptide. Fluorescence polarization, fluorescein-MLL peptide displacement from menin. FP activity change, % at 61.4 µM. 290,000 tested, under 10 active. AID 1766, 2009; inconclusive = falling polarisation curve, or a change in total fluorescence; inactive = total fluorescence flat and polarisation flat or rising; no compound was filed as active; the % refers to the polarisation; negative = inhibition;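 further: % of control where 0% means no effect; inhibitors lower the polarisation; unlabelled MLL peptide was the positive control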
Active calls of the source: *; ? = inconclusive; nt = not tested or not shown; [ ] = another dose, or the depositor's remark.

SMILES	ClpP mod	TRPML1 ag	PINK1 expr mod	TRPV1 potentiator	Sfp PPTase inh	TRPML1 inh	Menin-MLL FL inh
CNC(=O)c1c(NC(=O)c2ccc(S(=O)(=O)N3CCCCC3)cc2)sc2c1CCN(C(C)C)C2	-1.6%	3.5	1.0%	-6	13%	-7	32[activator]
CCCn1c(=N)n(CC(O)c2ccc(C)cc2)c2ccccc21 (configuration not stated)	nt	-0.5	-0.3%	1	11%	20	2.5
COc1ccc(-c2nnc(SC(C)C(=O)NCc3ccc4c(c3)OCO4)n2Cc2ccco2)cc1 (configuration not stated)	-1.2%	-0.5	-0.3%	6	?	-9	-1.7
CCCCOC(=O)C1=C(C)Nc2nnnn2C1c1ccc(OC)c(OC)c1OC (configuration not stated)	0.7%	-0.6	nt	1	19%	-16	-0.5
CC(C)(C)S(=O)N1Cc2cc(C(=O)NCc3ccc4c(c3)OCO4)nc(-c3cccc(-c4cc5ccccc5o4)c3)c2[C@@H]1CCO (some centres not stated)	-17%	-0.7	-0.5%	nt	nt	nt	nt
CCOC(=O)c1c(CCl)nc2ccccc2c1-c1ccccc1	nt	-0.2	8.2%	-19	-15%	-8	12
O=C(Nc1ccc(Cl)cc1)N1CCSC1=NCc1ccccc1	0.6%	0.3	-1.2%	1	19%	-4	5.5
CC1CCCCC1NC(=O)CN1C(=O)c2ccccc2S1(=O)=O (configuration not stated)	1.3%	-0.4	-0.4%	-4	13%	4	nt
Cn1cccc1/C=N\NC(=O)C1COc2ccccc2O1 (configuration not stated)	-0.2%	85*	3.9%	-22	18%	-7	4.3
CC(C)CC(NC(=O)OC(C)(C)C)C(=O)NCc1ccccc1 (configuration not stated)	0.4%	-0.9	0.3%	-27	6%	4	-2.5
Cc1cc(C)cc(Nc2cc(C(=O)NCCCN(Cc3ccccc3)C(C)C)c3ccccc3n2)c1	?	0.5	0.7%	nt	nt	-12	nt
Nn1c(SCC(=O)NC2CCCC2)nnc1-c1ccccc1F	-1.9%	-0.5	1.2%	-3	9%	-9	?
O=C(Nc1cccc(C(=O)Nc2ccc(Br)cc2)c1)c1ccccc1	1.5%	nt	4.2%	0	16%	nt	2.9
O=C(OCCN1CCCCC1)c1ccccc1Cl	-1.6%	-0.3	-0.1%	2	9%	-3	-0.3
O=C(Cn1cnc2ccccc2c1=O)NCCC(=O)N1CCN(Cc2ccccc2)CC1	0.7%	-0.6	2.4%[38.3 µM]	9	9%	-14	-1.1
CC(C)NC(=O)Cn1cc(C(=O)C2CC2)c2ccccc21	-3.4%	0.5	0.7%	-4	10%	-6	-3.4
O=C(Nc1ccc(Cn2cccn2)cc1)c1ccc(COc2ccccc2Br)cc1	?	5.4	1.1%	-7	11%	23	1.5
COc1ccc(OC)c(NC(=O)c2c(C)oc3ncnc(N4CCOCC4)c23)c1	-1.5%	0.1	6.5%	nt	nt	19	nt
CCOc1ccc(Oc2cc(NC(=O)c3ccco3)cc([N+](=O)[O-])c2)cc1	-0.2%	0.1	?	2	19%	0	2.5
O=C(c1ccccc1Cl)N1N=C(c2cccs2)CC1c1cccc(O)c1 (configuration not stated)	-2.2%	0.3	-1.1%	-6	5%	1	nt
CC(C)=N/N=C(\N)SCc1ccccc1	nt	0.8	0.7%	0	-5%	11	0.6
COc1cc(C(=O)NCCOc2cc(C)cc(C)c2)cc(OC)c1OC	-2.0%	4.1	0.9%	15	-3%	-6	-4.9
Cc1ccc(Cn2nnc(C(=O)Nc3cccc(C)c3C)c2N)cc1	97%	?	15%	-47	9%	-5	-0.1
N#Cc1ccccc1Cn1cc(C#N)c2ccccc21	-2.9%	-0.6	-0.3%	5	-14%	-4	3.5
O=C(c1ccc(F)cc1F)N1CCCc2ccccc21	2.3%	0.0	4.2%	-5	9%	-17	0.7
CC1CCN(C(=O)/C(=C/c2ccccc2Cl)c2ccccc2)CC1	0.2%	-0.3	-1.7%	-14	79µM*	12	5.1
O=C(O)COc1ccccc1/C=N/NC(=O)CSc1nnc(SCc2cccc3ccccc23)s1	nt	0.1	2.1%	-16	?	-12	?
C/C(=N/NC(=O)c1nnn(-c2nonc2N)c1COc1ccccc1)c1ccccc1Cl	1.1%	-0.3	0.8%	1	11%	13	-1.3
CCCCCC(=O)N1C[C@H](O)[C@@H](n2cc(C3CC3)nn2)C[C@@H]1c1ccc(Cl)cc1	-0.1%	2.0	1.8%	nt	nt	1	nt
Nc1nnc(CC(c2ccccc2)c2ccccc2)s1	0.9%	-0.4	-3.7%	-13	4%	-5	3.2

Continued, overlapping the part above by 5 compounds.
SMILES	ClpP mod	TRPML1 ag	PINK1 expr mod	TRPV1 potentiator	Sfp PPTase inh	TRPML1 inh	Menin-MLL FL inh
CC1CCN(C(=O)/C(=C/c2ccccc2Cl)c2ccccc2)CC1	0.2%	-0.3	-1.7%	-14	79µM*	12	5.1
O=C(O)COc1ccccc1/C=N/NC(=O)CSc1nnc(SCc2cccc3ccccc23)s1	nt	0.1	2.1%	-16	?	-12	?
C/C(=N/NC(=O)c1nnn(-c2nonc2N)c1COc1ccccc1)c1ccccc1Cl	1.1%	-0.3	0.8%	1	11%	13	-1.3
CCCCCC(=O)N1C[C@H](O)[C@@H](n2cc(C3CC3)nn2)C[C@@H]1c1ccc(Cl)cc1	-0.1%	2.0	1.8%	nt	nt	1	nt
Nc1nnc(CC(c2ccccc2)c2ccccc2)s1	0.9%	-0.4	-3.7%	-13	4%	-5	3.2
CCC(C)N(C(=O)COC(=O)COc1c(C)cc(C)cc1C)C1CCS(=O)(=O)C1 (configuration not stated)	2.5%	-1.0	1.7%	6	nt	-18	nt
Cc1ccc(Oc2nc(-c3ccccc3)ncc2S(C)(=O)=O)cc1	-2.6%	1.1	1.9%	-10	15%	-24	3.3
O=C(CSc1nnc2scc(-c3ccccc3)n12)NCc1ccco1	1.2%	0.8	4.1%	1	3%	12	0.0
CCCN1CCN(c2ncnc3sc(C(=O)Nc4ccc(OC(F)(F)F)cc4)c(C)c23)CC1	1.3%	1.4	3.9%	nt	nt	1	nt
Cc1ccc2c(CN3CCN(c4ccc(Cl)c(Cl)c4)CC3)cc(=O)oc2c1	-4.1%	0.8	3.3%	nt	nt	16	nt
Cn1c(CN2CCOCC2)nnc1SCc1cccc(F)c1	-1.7%	3.4	0.1%	11	-3%	0	1.0
CC1CCN(S(=O)(=O)c2ccc(NC(=O)c3cccs3)cc2)CC1	127%	-0.6	-0.9%	-10	13%	-13	5.1
COC(=O)[C@H](CC(C)C)NC(=O)Nc1cccc(Br)c1	0.6%	0.5	-0.4%	12	0%	2	1.0
CC(=O)COC(=O)C1=NN(c2ccccc2)C(=O)CC1	0.5%	-0.7	-1.4%	1	0%	6	-0.5
Nn1c(Cc2ccccc2)n[nH]c1=S	1.0%	-0.4	-0.3%	-2	9%	-10	-0.8
Cc1cc(C)cc(NC(=O)C2CCN(S(=O)(=O)c3cccc4nonc34)CC2)c1	2.3%	4.7	5.0%	nt	nt	7	nt
COc1ccc2c(c1)N(C(=O)CN1C(=O)C3CCCCC3C1=O)C(C)(C)C=C2C (configuration not stated)	0.2%	1.8	-2.2%	-8	11%	20	1.9
CCOC(=O)N1CCC(=NNc2ccnc3cc(Cl)ccc23)CC1	nt	1.6	0.5%	1	4%	4	1.1
Cc1nnc(NC(=O)c2cc(-c3ccncc3)nc3c(C)cccc23)s1	-4.0%	-0.4	-0.1%	-2	15%	5	nt
CCCCCC(=O)NNC1CC(=O)N(c2cccc(OCC)c2)C1=O (configuration not stated)	nt	1.1	-0.8%	9	-8%	-7	1.5
O=C(NCCC1=CCCCC1)C1CCCN(S(=O)(=O)c2ccccc2)C1 (configuration not stated)	-0.5%	0.2	0.2%	-21	-8%	34	-2.9
CCCn1cc(CN2CCC(Cc3cccc(F)c3)(C(=O)OCC)CC2)c(C)n1	-0.1%	0.1	2.1%	-24	8%	40	-0.7
CCOC(=O)C1(C)CCN1C(=O)c1cccc(C#N)c1 (configuration not stated)	0.4%	-0.3	2.1%	nt	nt	nt	nt
O=C(Cn1c(=O)n(Cc2ccc(C(=O)NCc3ccc4c(c3)OCO4)cc2)c(=O)c2ccccc21)Nc1cccc(Cl)c1	?	0.0	0.4%	nt	nt	-8	nt
COc1ccc(N(Cc2cccs2)C(=O)c2ccc(C(C)(C)C)cc2)cc1	0.2%	2.3	30%	nt	nt	26	nt
CCCCCCCCNC(=O)CC(NS(=O)(=O)c1ccc(NC(C)=O)cc1)C(C)C (configuration not stated)	-4.3%	2.3	1.6%	3	5%	-24	0.0
CC(=O)c1ccc(C(=O)N2CCCC(Nc3ccc(C(C)C)cc3)C2)s1 (configuration not stated)	1.1%	2.2	-0.9%	-16	1%	2	nt
CC(C)C(NC(=O)CC12CC3CC(CC(C3)C1)C2)C(=O)O (configuration not stated)	-2.2%	-0.1	-1.2%	2	16%	-3	-2.8
O=C(NCc1cccnc1)C1CC2c3ccccc3C1c1ccccc12 (configuration not stated)	-1.4%	0.1	0.0%	nt	8%	-1	3.4
Fc1ccc(-c2ccnc3nc(-n4cccc4)nn23)cc1	-5.1%	0.4	1.1%[38.3 µM]	12	-13%	36	-0.7
O=C(OCc1cccc([N+](=O)[O-])c1)c1cccnc1	nt	0.0	1.5%	?	12%	-5	-4.6
c1ccc2c(c1)NC1(CCCCC1)n1c-2nc2ccccc21	2.5µM*	-0.1	-4.6%[38.3 µM]	-15	0%	-9	-1.4
